NPYLR7 ag: agonists of mosquito NPYLR7 receptor, primary screen, cell-based, Aedes aegypti, calcium fluorescence, mosquito biting behavior | Aedes aegypti neuropeptide Y-like receptor 7 (NPYLR7) | HEK293T NPYLR7/Galpha15, GCaMP6s calcium fluorescence | activation, % at 10 µM | 270,000 tested, 0.15% active | AID 1259423, 2018; in the data active means activation above about 40%;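 further: 0% = vehicle and 100% = reference agonist at the receptor; some compounds past the cut are filed as inactive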
NPYLR7 ag max-min: recorded beside NPYLR7 ag, whose call it bears; activation, %; measured here: Max-Min RFU normalised activation; some inactives read as strong as hits;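 span of the calcium signal over five minutes; 0% = vehicle and 100% = native peptide agonist; compound fluorescence can raise it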
Numbers without * were called inactive; & = joins results of further samples. Only part of the results is shown; the hit share may differ from the screen's.

Below each SMILES: NPYLR7 ag, NPYLR7 ag max-min
> CCOC(=O)[C@H]1CN(C(=O)CC2CCCC2)[C@]2(C)C(=O)N(CC(=O)N(C)C)c3ccccc3[C@H]12
 : 1.7, 14.6
> CCC1(c2ccccc2)C(=O)NC(=O)N(C)C1=O (stereo unspecified)
 : -17.5, -29.7
> N=C1Oc2c(c(=O)oc3ccccc23)C2(C(=O)Nc3ccc(Br)cc32)C1C(=O)OCc1ccccc1 (stereo unspecified)
 : -5.4, 6.2
> O=C(Cc1cccs1)N1CCN(C2c3ccccc3CCc3ccccc32)CC1
 : -3.0, 3.0
> CCNC(=O)C(C)NC1CCC2(CCNCC2)CC1 (stereo unspecified)
 : 0.5, -8.4
> O=C(COc1ccc(F)cc1)N1CCN(Cc2ccc(-c3noc(C4CCCC4)n3)cc2)CC1
 : 2.7, -3.3
> Cc1ccc(C[N+](C)(C)C)o1
 : 43.7, 34.9
> COc1cc2c(cc1OC)CNCC2
 : 4.0, 0.6
> CCCc1nc(C)cc(N2C[C@H]3CC[C@@H](C2)N3)n1
 : -4.7, -14.9
> C=C1C/C(=C/C)C(=O)O[C@@H]2CCN3CC=C(COC(=O)[C@]1(C)O)[C@H]23
 : 6.7, 5.8
> O=C(c1ccccc1)[C@@H]1[C@@H](C(=O)c2ccccc2)N1Cc1ccccc1 (stereo partly specified)
 : -5.5, -7.2
> Clc1ccccc1C1CC(c2cccnc2)=Nc2nnnn21 (stereo unspecified)
 : 2.9, 1.0
> CN1CCN(c2cc(N)nc(N)n2)CC1
 : 2.6, 9.3
> O=C1Nc2ccccc2C2(CCN(CCc3ccc(C(F)(F)F)cc3)CC2)O1
 : 6.1, -5.0
> CC(C)(N)Cc1ccc(Cl)cc1
 : -10.8, -22.2
> Cc1ccc(Cn2cccc(C(=O)Nc3ccc(F)c([N+](=O)[O-])c3)c2=O)cc1
 : 4.7, 0.9
> O=C(CCCCCCl)N1CCN(CCOC(c2ccccc2)c2ccccc2)CC1
 : 21.2, 28.4
> CN1CCN(c2ccc(C(F)(F)F)cn2)CC1
 : -1.3, -3.9
> COc1ccc(NC(=O)c2nn(Cc3ccc(-c4ccccc4)cc3)c3ccccc23)cc1
 : 14.0, 15.0
> C/C=C1/CN2CC[C@]34C(=C(C=O)[C@@H]1C[C@H]23)Nc1c(O)cccc14
 : 1.6, 1.5
> CCOC(=O)[C@H]1CN(C(=O)CCc2ccccc2)[C@]2(C)C(=O)N(CCOC(C)=O)c3ccccc3[C@H]12
 : 12.5, 21.6
> COC(=O)[C@@H](N)CCCN=C(N)N[N+](=O)[O-]
 : 5.3, -44.9
> O=c1oc2ccccc2c(O)c1C(c1ccccc1O)c1c(O)c2ccccc2oc1=O
 : 1.3, 3.3
> N#CC1C(=N)Oc2c(c(=O)oc3ccccc23)C1c1cccnc1 (stereo unspecified)
 : -6.4, -10.6
> COc1ccc(F)cc1C(=O)C1CCCN(Cc2cnc(SC)nc2)C1 (stereo unspecified)
 : 0.9, -0.1
> CCc1nnsc1C(=O)N1C[C@@H](c2ccccc2)[C@@H]2[C@H]1C1CCN2CC1
 : 9.1, 2.1
> N#CC(C#N)=Cc1ccc(O)c(O)c1
 : 71.9, 9.6
> CSc1ccc(C(=O)C2CCCN(Cc3nc4ccccc4s3)C2)cc1 (stereo unspecified)
 : 2.9, -9.9
> CN1CCN(C(=O)Cc2ccc(F)c(Br)c2)C(CNC(=O)OC(C)(C)C)C1 (stereo unspecified)
 : 0.2, -1.1
> CN1C2CC3C[C@H]1C(O3)C2O (stereo partly specified)
 : -10.1, -13.4

Among those listed so far, these have sulfur.
Below each SMILES: NPYLR7 ag, NPYLR7 ag max-min
> O=C(Cc1cccs1)N1CCN(C2c3ccccc3CCc3ccccc32)CC1
 : -3.0, 3.0
> COc1ccc(F)cc1C(=O)C1CCCN(Cc2cnc(SC)nc2)C1 (stereo unspecified)
 : 0.9, -0.1
> CCc1nnsc1C(=O)N1C[C@@H](c2ccccc2)[C@@H]2[C@H]1C1CCN2CC1
 : 9.1, 2.1
> CSc1ccc(C(=O)C2CCCN(Cc3nc4ccccc4s3)C2)cc1 (stereo unspecified)
 : 2.9, -9.9

2 of the compounds above, with each value named:
molecule: O=C(CCCCCCl)N1CCN(CCOC(c2ccccc2)c2ccccc2)CC1
  NPYLR7 ag: 21.2; NPYLR7 ag max-min: 28.4
molecule: CN1CCN(c2ccc(C(F)(F)F)cn2)CC1
  NPYLR7 ag: -1.3; NPYLR7 ag max-min: -3.9

(more compounds)
Below each SMILES: NPYLR7 ag, NPYLR7 ag max-min
> N#Cc1ccc(NC(=O)N2CCSCC2)cc1C(F)(F)F
 : -12.5, -18.3
> CCS(=O)CCSP(=O)(OC)OC (stereo unspecified)
 : -4.9, -12.2
> CCN(CC)CCO[C@H]1CC[C@@]2(C)C(=CC[C@@H]3[C@@H]2CC[C@]2(C)C(=O)CC[C@@H]32)C1
 : -14.0, -20.1
> O=c1c(O)c(-c2ccc(O)c(O)c2)oc2c(O)c(O)cc(O)c12
 : -3.0, -9.4
> CC(C)(C)c1nn(-c2ccccc2Cl)c2c1C(c1ccc(F)cc1)SCC(=O)N2CC(=O)NC1CC1 (stereo unspecified)
 : 3.7, 2.9
> O=C(O)c1cc(I)cc(I)c1I
 : -3.3, -3.9
> CCC(C)c1ccc(-n2c(-c3ccccc3I)nc3ccccc3c2=O)cc1 (stereo unspecified)
 : 5.5, 3.2
> COc1cccc(COC(CN2CCN(C(=O)Cc3cccs3)CC2)c2ccc(Cl)cc2)c1 (stereo unspecified)
 : -3.0, 5.5
> CCC(C)C(C)(COC(N)=O)COC(N)=O (stereo unspecified)
 : -11.0, -19.4
> Cc1noc(C)c1CNC(C)Cn1cncn1 (stereo unspecified)
 : 6.2, 3.5
> Cc1ccc(N2Cc3ccccc3C2=N)cc1
 : -2.3, 31.2
> O/N=C1\CCC2CN(C3CCCCC3)CC2C1 (stereo unspecified)
 : 1.3, 0.1
> O=C1CC(=O)N(c2ccc(F)cc2)C(=O)N1
 : -5.2, -7.3
> CCn1cc(C(=O)NC2CCC(C)CC2)c2ccccc21 (stereo unspecified)
 : 1.6, 0.0
> Cc1cc(F)ccc1CC(=O)N1CCN(C)C(C(=O)O)C1 (stereo unspecified)
 : 10.4, 9.6
> Cc1cc(N2C(=O)C3CCCN3C2c2ccccc2F)no1 (stereo unspecified)
 : 10.7, 7.6
> CCOc1ccccc1-n1c(C(C)NCc2ccco2)nc2ccccc2c1=O (stereo unspecified)
 : 2.5, 3.2
> CN(C)C1=C(C#N)C(c2ccccc2)=NP(N(C)C)(N(C)C)=N1
 : -5.2, -5.1
> C[C@]12CC[C@@H](O)C[C@@H]1CC[C@@H]1[C@@H]2CC[C@]2(C)C(=O)CC[C@@H]12
 : -5.9, -9.7
> CC[C@@H](CO)NC(=O)[C@@H]1C=C2c3cccc4c3c(cn4C)C[C@H]2N(C)C1
 : 16.4, -21.1
> CCCC(C)C1(CC)C(=O)NC(=O)NC1=O (stereo unspecified)
 : -7.4, -11.3
> Cc1ccnc(-n2cccc2CN2[C@@H]3CC[C@H]2CN(C)C(=O)C3)c1
 : 5.9, 3.5
> CC1=CC[C@@H]2CN(Cc3cc(=O)[nH]c(=O)[nH]3)C[C@@H]2C1
 : 25.7, 13.3
> CCCN(CCC)C1CCc2ccc(O)cc2C1 (stereo unspecified)
 : -0.6, -26.0
> Clc1ccc2nc(N3CCNCC3)sc2c1
 : 0.0, -3.0
> Cc1nc(CCNC(=O)[C@@]23CNC[C@@H]2CN(C)C3)cc(=O)[nH]1
 : 2.0, 1.9
> CCC(NCc1ccco1)c1nc2ccccc2c(=O)n1-c1ccc(OC)cc1 (stereo unspecified)
 : 1.9, 10.3
> Cc1n[nH]c(C)c1CNc1ccc(C#N)c(C(F)(F)F)c1
 : -2.3&-2.9, -3.9&9.7
> CCc1cccc(CC)c1NC1=NCCN1
 : -8.4, -9.2
> C=CCN=C=S
 : 1.4, 0.6
> CCOP1(=S)C2=C(N3CCOCC3)CC(C)(C)CC2=NN1c1ccccc1 (stereo unspecified)
 : -16.0, -21.0
> O=S(=O)(c1ccccc1OC(F)(F)F)N1CCN(CCOC(c2ccccc2)c2cccc(C(F)(F)F)c2)CC1 (stereo unspecified)
 : 6.4, -0.7
> O[C@H]1C[C@@H]2CN(Cc3cnc(-c4ccccn4)nc3)C[C@@H]2C[C@@H]1O
 : 7.2, 3.1
> O=c1[nH]c2ccc(Cl)cc2c(N[C@@H]2CN3CCC2CC3)c1-c1nc2ccccc2[nH]1
 : 2.5, -4.2
> CCOC(=O)[C@@H]1[C@H]2CN(C(=O)c3cccs3)CCN2C[C@H]1c1ccccc1
 : -6.8, -2.1
> Cc1nc(-c2ccccc2)cc([C@H]2CN3CC[C@H]2C[C@@H]3CNS(C)(=O)=O)n1
 : -6.5, -12.5
> Cc1ccc(-c2cccc3c2CCNC3)nn1
 : 3.5, 1.2
> O=S(=O)(c1ccccc1OC(F)(F)F)N1CCN(CCOC(c2ccccc2)c2ccc(N3CCOCC3)cc2)CC1 (stereo unspecified)
 : 4.3, 3.9
> CC(C)(C)c1nn(-c2cccc(Cl)c2)c2c1C(c1ccc3c(c1)OCO3)SCC(=O)N2CC(=O)NC1CC1 (stereo unspecified)
 : 15.2, 20.0
> CCN(CC)P(=S)(c1ccc(N=CN(C)C)c2ccccc12)N(CC)CC
 : 0.1, -3.0
> C=CCSCC(=O)N1CC[C@H]2CC[C@@H](C1)N2
 : 7.3, 2.0
> c1ccc(-c2ncc(CN3CCC4(CCCNC4)C3)cn2)nc1 (stereo unspecified)
 : -1.3, 5.6
> CCOC(=O)[C@H]1CN(C(=O)C(CC)CC)[C@]2(C)C(=O)Nc3ccccc3[C@H]12
 : -2.5, -0.7
> COc1cc(C2c3c(c4ccccc4oc3=O)OC(=N)C2C#N)cc(OC)c1OC (stereo unspecified)
 : -4.3, -6.9
> CNC(=S)P1(=O)N(Cc2ccccc2)C(=O)c2ccccc2N1CC(=O)OC (stereo unspecified)
 : 4.5, 5.7
> O=C(CSC(c1ccccc1)c1ccccc1)NCc1ccc(NC(=O)C2CC2)cc1
 : 9.0, 4.2
> COc1cccc([C@@H]2CCN(Cc3cccnc3OC)C[C@H]2O)c1
 : -6.6, -5.1
> N=c1sccn1Cc1cccc2ccccc12
 : 6.7, 5.1
> C#CC(C)(C)NC(=O)c1nn(Cc2ccc(OCc3ccccc3)cc2)c2ccccc12
 : 20.9, 23.6
> CCn1ccnc1CN1CCCC(C(=O)c2cc(C)c(OC)c(C)c2)C1 (stereo unspecified)
 : 1.9, -1.5
> CCOC(=O)CN1CC1C(=O)OCC (stereo unspecified)
 : -5.5, -12.8
> O=C(CCl)c1ccc(F)cc1
 : 7.6, 8.6
> Cc1sc2c(c1C)C(c1ccc(Cl)cc1)=N[C@@H](CC(=O)Nc1ccc(O)cc1)c1nnc(C)n1-2
 : -1.4, -5.1
> O=c1[nH]ncc(N2CCOCC2)c1Cl
 : 3.7, 3.5
> c1cncc(C2CCCN2)c1 (stereo unspecified)
 : -6.1, -14.6
> COc1ccc(C2SCC(=O)N(CC(=O)NCc3cccnc3)c3c2c(C(C)(C)C)nn3C)cc1OC (stereo unspecified)
 : 10.8, 21.2
> COC(=O)C(CCSC)NC(=O)c1cn(Cc2ccc(F)cc2)nn1 (stereo unspecified)
 : -13.4, -15.0
> CCn1cc(C(=O)OCC(=O)Nc2cc(C)on2)c2ccccc21
 : -3.0, -4.1
> ClC1=C(Cl)C2(Cl)C3C4CC(C5OC45)C3C1(Cl)C2(Cl)Cl (stereo unspecified)
 : -5.1, -8.3
> COc1cc(CN2CCCC(C(=O)c3sccc3C)C2)cc(Cl)c1O (stereo unspecified)
 : 4.3, 2.8

Following part:
Below each SMILES: NPYLR7 ag, NPYLR7 ag max-min
> CCOc1ccccc1NC(=O)CCN1[C@@H]2CC[C@H]1CC(O)C2 (stereo partly specified)
 : -5.3, -11.5
> COCCCNC(=O)CN1C(=O)CSC(c2ccc3c(c2)OCO3)c2c(C(C)(C)C)nn(C(C)(C)C)c21 (stereo unspecified)
 : 16.3, 3.0
> CC(=O)c1ccc(N2CCC3(CC2)CC(C(=O)O)N(C)C3)nc1 (stereo unspecified)
 : 4.8, 4.4
> COCc1cc(C)nc2c1C1N=C(CC(C)C)NC(=O)C1S2 (stereo unspecified)
 : 1.9, 34.4
> CC1CN=C(Nc2cccc3cccnc23)S1 (stereo unspecified)
 : -0.9, -3.6
> O=C(Cc1ccsc1)N1CCN(Cc2ccc(-c3noc(-c4ccco4)n3)cc2)CC1
 : 5.2, 9.5
> O=C1NC(=O)N(Cc2ccccc2)C(=O)/C1=C\c1ccco1
 : -5.4, -7.4
> CCOC(=O)[C@H]1CN(C(=O)c2ccc(F)cc2)[C@]2(C)C(=O)N(CC(=O)N(C)C)c3ccccc3[C@H]12
 : 22.8, 29.0
> COCC(=O)Nc1ccc2[nH]cc(CCN3CCN(c4ccc(OC)cc4)CC3)c2c1
 : 7.0, 20.6
> C1CCCN(C2CCNCC2)CC1
 : -8.4, -15.3
> Oc1ccc(C2N(O)C3CCCCC3N2O)cc1 (stereo unspecified)
 : -10.8, -16.3
> COc1cc(CC(=O)N2CCCN3CCC[C@H]3C2)cc(OC)c1OC
 : 5.3, 3.4
> c1cn(CCc2cnc[nH]2)c(-c2ccc3occc3c2)n1
 : 2.1, -0.5
> Fc1ccc(CCNCc2ccc3c(c2)OCO3)cc1
 : 6.1, 0.7

Three structures already listed, arranged by length of the SMILES, ascending.
Below each SMILES: NPYLR7 ag, NPYLR7 ag max-min
> c1cn(CCc2cnc[nH]2)c(-c2ccc3occc3c2)n1
 : 2.1, -0.5
> COCc1cc(C)nc2c1C1N=C(CC(C)C)NC(=O)C1S2 (stereo unspecified)
 : 1.9, 34.4
> COCCCNC(=O)CN1C(=O)CSC(c2ccc3c(c2)OCO3)c2c(C(C)(C)C)nn(C(C)(C)C)c21 (stereo unspecified)
 : 16.3, 3.0
